# High-throughput results (PubChem)
# Marburg entry inh = blocks Marburg virus binding to or entry into cells | Marburg virus pseudotyped entry inhibition, cell reporter; control for the full effect not named in the record; about a third of the inactives were read at about 46 µM | Potency, µM (series often up to 37.8 µM), for inactives: top-dose activity change, negative = inhibition, most hits filed as inhibitors | actives 1.8% (n = 300,000) | AID 540276; active = well fitted inhibition curve with a large enough effect; inconclusive = small, poorly fitted or top-dose-only effect, or effect the other way; inactive = flat fitted curve, though single readings scatter; tested in HEK293 cells; about a fifth of its hits are not listed in these tables; note: % is set by controls: 0 for no effect and ±100 for the full control effect; luciferase read-out
# RE007 growth inh = less growth of the S. pombe RE007 Vpr strain | S. pombe RE007 Vpr strain, BacTiter-Glo ATP luminescence, 24 h; control for the full effect not named in the record | Potency, µM (top dose mostly 92.2 µM), without a hit: at the highest dose activity change, negative = less growth | actives 0.21% (n = 360,000); active = well fitted falling curve with a large enough effect; inconclusive = small, poorly fitted or top-dose-only effect; inactive = no such curve, though single readings can be large or run the other way;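 note: % is set by controls: 0 for no effect and ±100 for the full control effect; nearly all actives have a fitted effect of over 50% in size; the assay follows cell death caused by Vpr and the record does not say whether a fall means rescue or toxicity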
#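 Fission yeast strain RE007, carrying one chromosomally integrated HIV-1 vpr copy, was seeded at OD 0.01 in PMG+AL medium with 23 nL pinned compound. After 24 h at 30 °C and 99% humidity, viability was read by BacTiter-Glo luminescence.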
# Cruzain inh noDet = inhibitors of Trypanosoma cruzi cruzain without detergent. P25779. purified cruzain, Z-FR-AMC fluorescence, no detergent. Potency, µM, for inactives: max response, negative = inhibition, usual class: inhibitors. actives 2.3% (n = 200,000);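 note: plate controls were enzyme without inhibitor for no effect and buffer without enzyme for full effect; nearly all actives have a fitted effect of over 40% in size; top concentration of the series not given in the record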
# Target sequence (P25779 123-467 limits assumed): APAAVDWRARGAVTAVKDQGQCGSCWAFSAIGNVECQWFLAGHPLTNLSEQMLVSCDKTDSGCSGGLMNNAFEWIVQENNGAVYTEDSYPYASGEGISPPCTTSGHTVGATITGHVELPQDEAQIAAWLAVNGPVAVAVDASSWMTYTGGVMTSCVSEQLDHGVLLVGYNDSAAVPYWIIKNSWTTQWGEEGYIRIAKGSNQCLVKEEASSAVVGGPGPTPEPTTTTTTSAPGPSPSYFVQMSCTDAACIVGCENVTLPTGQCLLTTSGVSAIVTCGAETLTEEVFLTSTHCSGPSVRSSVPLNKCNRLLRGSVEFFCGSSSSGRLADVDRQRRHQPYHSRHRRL
#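 Purified cruzain at 1.5 nM, pre-incubated 15 min with compound at room temperature in 100 mM sodium acetate pH 5.5, 5 mM DTT, 0.00005% Triton X-100. Reaction started with 2 uM Z-FR-AMC; AMC fluorescence increase over 60 s gives rate.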
# SARS PLpro yeast = blocks SARS-CoV papain-like protease in a yeast assay. S. cerevisiae expressing SARS-CoV PLpro, growth rescue; control for the full effect not named in the record. Potency, µM (doses to about 32.9 µM), inactives show at the top dose activity, positive = growth rescue. actives 0.19% (n = 330,000); active means well fitted rising curve with a large enough effect; inconclusive means small, poorly fitted or top-dose-only effect; inactive means no such curve, though single readings can be large or run the other way; note: 0% is about no effect; nearly all actives have a fitted effect of over 55% in size; growth read by luminescence after 48 h
# Cruzain inh Det = blocks cruzain activity in presence of Triton detergent; P25779; AID 1478; Potency, µM, inactives show max response, negative = inhibition, usual class: inhibitors; purified cruzain, Z-FR-AMC fluorescence, 0.01% Triton; actives 0.43% (n = 200,000);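 note: plate controls were neutral wells for no effect and buffer without enzyme for full effect; nearly all actives have a fitted effect of over 40% in size; top concentration of the series not given in the record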
#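 Detergent-containing run (0.01% Triton X-100) in acetate buffer pH 5.5 with 5 mM DTT: enzyme at 1.5 nM final, 15 min compound preincubation at room temperature, then 2 uM Z-FR-AMC substrate. Activity taken as 60 s fluorescence increase at 360/450 nm.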
# NS1 function inh = blocks influenza NS1 protein function | S. cerevisiae slowed by influenza A NS1, growth recovery by OD600 | Potency, µM (highest dose often 46.1 µM), for the others: at the top dose activity, positive = more growth | actives 0.4% (n = 270,000); active means well fitted rising curve with a large enough effect; inconclusive means small, poorly fitted or top-dose-only effect; inactive means no such curve, though single readings can be large or run the other way; note: nearly all actives have a fitted effect of over 50% in size
#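 A cell-based growth assay was used: compounds that relieve NS1-induced slow growth of budding yeast raise OD600. Assay medium was yeast nitrogen base with ammonium sulphate and -URA supplement, pH 6.0, with 2% galactose.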
# StopGo reporter = lowers the luciferase signal of an FMDV 2A StopGo reporter; human cells with a luciferase reporter of 2A StopGo recoding; control for the full effect not named in the record; Potency, µM (highest dose often 57.9 µM), for the others: at the top dose signal change, negative = less light; actives 1.2% (n = 410,000); AID 1159524; active = well fitted falling curve with a large enough effect; inconclusive = small, poorly fitted or top-dose-only effect; inactive = no such curve, though single readings can be large or run the other way; tested in HEK293T cells; note: % is set by controls: 0 for no effect and ±100 for the full control effect; nearly all actives have a fitted effect of over 45% in size; luciferase light after 4 h
# Lassa entry inh = blocks Lassa virus binding to or entry into cells. actives 1.2% (n = 300,000). Potency, µM (titrated, usually from 37.9 µM), without a hit: at the top dose activity change, negative = inhibition, most hits filed as inhibitors. AID 540256. Lassa virus pseudotype entry inhibition, cell reporter; control for the full effect not named in the record; active means well fitted inhibition curve with a large enough effect; inconclusive means small, poorly fitted or top-dose-only effect, or effect the other way; inactive means flat fitted curve, though single readings scatter; tested in HEK293 cells; note: % is set by controls: 0 for no effect and ±100 for the full control effect; nearly all actives have a fitted effect of over 50% in size; luciferase read-out
# Active calls of the source: *; ? = inconclusive; / = no result given; & = joins results of further samples; [ ] = remark or other dose. Unless noted, calls come from the whole dose curve; as a rule, active = well fitted curve in the direction sought with a large enough effect; inconclusive = small, poorly fitted or top-dose-only effect, or another doubt; inactive = no such curve, though single readings can be large; an effect the other way counts as inactive or inconclusive. Potency is the fitted concentration of half-maximal effect.
SMILES,Marburg entry inh,RE007 growth inh,Cruzain inh noDet,SARS PLpro yeast,Cruzain inh Det,NS1 function inh,StopGo reporter,Lassa entry inh
CCOc1ccc(CCNC(=O)c2ccc(Cn3c(=O)c4cccn4c4cccnc43)cc2)cc1,/,/,-2.7%,/,6.8%,/,-21.0%,?
COc1ccc(CNC(=O)CN2CCSc3ccccc32)c(OC)c1,/,/,5.2%,/,-7.1%,/,21.3%,6.6%[46.1 µM]
COc1ccc2nc(C)cc(SCC(=O)Nc3c(C)cc(C)cc3C)c2c1,-20.2%,1.9%,10.7%,-2.7%,4.2%,9.4%,-6.1%,4.6%
COc1ccccc1NS(=O)(=O)c1cccc(C(=O)NCc2ccncc2)c1,-5.5%,4.3%,/,8.6%,/,/,0.3%,6.5%[46.1 µM]
CN(C(=O)COC(=O)c1cccnc1Nc1ccccc1F)C1CCS(=O)(=O)C1 (stereo not drawn),32.2%,3.0%,4.3%,3.6%,-0.9%,-11.5%,37.4%[activator],12.2%
Cc1ccc2cc(-c3noc(C4CCCCC4)n3)c(=O)[nH]c2c1,/,-6.7%,/,1.3%,/,4.7%,-1.0%,/
C[C@@H]1O[C@@H](Oc2c(-c3cc(O)c(O)c(O)c3)oc3cc(O)cc(O)c3c2=O)[C@H](O)[C@H](O)[C@H]1O,?,14.9%,-13.8%,0.4%,-6.9%,3.5%,-19.4%,1.4%
Cc1ccc(OCC(=O)N(Cc2ccc(N(C)C)cc2)CC2CCCO2)cc1C (stereo not drawn),1.3%[46.1 µM],/,14.4%,/,-2.7%,/,-4.0%,?
O=C(c1cc(C2CC2)on1)N1CCN(c2ccc(F)cc2)CC1,/,4.5%,-10.1%,5.7%,1.0%,-0.2%,-24.7%,/
Clc1ccc(C2=NOC(c3nnc(-c4ccccc4)o3)C2)cc1 (stereo not drawn),/,7.8%,/,1.8%,/,-4.1%,4.3%,/
O=S(=O)(c1cccc(-n2cnnn2)c1)N1CCOCC1,-11.0%,3.3%,5.2%,-3.1%,1.2%,-7.6%,/,6.0%
O=C(Nc1ccccc1C(=O)Nc1ccccn1)c1cccc([N+](=O)[O-])c1,/,-0.1%,/,-3.6%,/,5.8%,-20.5%,/
Cc1ccc(S(=O)(=O)c2c(N)n(-c3ccccc3)c3nc4ccccc4nc23)cc1,-15.8%[46.1 µM],-2.5%,-6.2%,10.6%,21.7%,4.4%,33.8%[activator],0.8%
COc1ccc(NC(=O)C2=C(C)Nc3ncnn3C2c2ccccn2)cc1 (stereo not drawn),/,/,-4.6%,/,-1.0%,/,7.8%,26.5%[46.1 µM]
CN(Cc1ccccc1)C(=O)COc1ccc(-c2nnco2)cc1,-2.5%,-6.8%,7.3%,-5.3%,0.8%,16.1%,-11.1%,7.0%
COc1cc(NC(=O)CCN2CCN(C/C=C/c3ccccc3)CC2)cc(OC)c1,/,-20.2%,/,7.4%,/,-6.8%,-26.5%,/
CCCc1ccc(-c2cc(C(=O)Nc3ccc([N+](=O)[O-])cn3)c3ccccc3n2)cc1,24.0%,4.5%,25.1µM*,-4.4%,-3.8%,-2.5%,23.0%,5.1%
O=C(N/N=C/c1ccccc1Cl)c1nc2ccc([N+](=O)[O-])cc2c(=O)[nH]1,/,-10.1%,/,-1.5%,/,3.2%,13.6%,/
O=C(CCN1CCN(S(=O)(=O)c2cccc([N+](=O)[O-])c2)CC1)Nc1ccccc1F,-29.6%[46.1 µM],-2.1%,/,1.1%,/,-11.3%,-7.5%,-13.2%[46.1 µM]
COCCn1nnnc1C(c1ccc(OC)c(OC)c1)N1CCc2ccccc21 (stereo not drawn),-4.4%,-7.0%,15.8%,-2.0%,-1.2%,-1.2%,14.5%,6.9%
COc1ccc(OC)c(N/C(C)=C/C(=O)c2ccc(Br)cc2)c1,-17.3%,-5.2%,/,0.4%,/,7.4%,-7.8%,5.3%
COC(=O)c1ccc(N2CCOCC2)c(NC(=O)c2ccc(Br)o2)c1,4.8%,3.4%,/,-4.3%,/,5.7%,0.0%,23.8%
CC(C)OC(=O)C1C2c3ccccc3C(c3ccccc32)C1C(=O)O (stereo not drawn),0.1%[46.1 µM],28.7%,/,-0.8%,/,4.5%,0.1%,?
Cc1ccccc1OCCC(=O)Nc1ccccc1C(=O)N1CCCCC1,1.5%,-4.1%,/,-0.9%,/,/,-20.8%,8.5%
COc1cc(C)c2occ(/C(C)=N\O)c2c1,5.2%,?,5.5%,-3.7%,-3.4%,-31.6%,6.5%,5.1%
COc1ccc2oc(C(=O)OCC(=O)N3CC(C)CC(C)C3)c(C)c2c1 (stereo not drawn),5.0%,-12.5%,/,-15.9%,/,/,-29.1%,-8.4%
COc1ccc(CN2CCN(c3ccccn3)CC2)c(OC)c1C,/,-0.6%&-9.0%,/,0.3%,/,-0.9%,0.0%&-5.0%,/
O=C(CN1C(=O)C2(OCCO2)c2ccccc21)c1ccc(Br)cc1,3.6%,5.1%,?,-17.5%,0.0%,-31.8%,-18.2%,15.6%
CCOC(=O)C1=C(C)Nc2ccccc2N=C1NC(=O)Cc1ccc(Cl)c(Cl)c1,-4.8%[46.1 µM],33.9%,/,-0.5%,/,1.7%,-19.2%,-18.8%
NC(=O)C[n+]1cccc(C(N)=O)c1,?,3.6%,/,1.4%,/,/,-13.5%,0.7%
Cc1ccc(S(=O)(=O)N2CCCCC2)cc1NC(=O)CSc1nccn1C,-4.6%[46.1 µM],-2.0%,/,1.0%,/,/,-4.8%,-6.8%
COc1ccc(NC2CC(=O)N(c3cccc(C)c3)C2=O)cc1 (stereo not drawn),21.7%,-19.4%,?,3.0%,-1.0%,6.4%,48.6%[activator],9.1%
Cc1ccc(-c2ccc(SCC(=O)Nc3cc(C)on3)nn2)cc1,-19.7%[46.1 µM],7.6%,/,0.1%,/,/,5.6%,0.0%
CC(C)OCCCn1c(=O)c2ccccc2n2c(-c3ccccc3)nnc12,-13.8%[46.1 µM],/,27.1%,/,1.2%,/,-14.6%,1.2%[46.1 µM]
O=C(O)c1ccccc1NC(=O)C(c1ccccc1)c1ccccc1,15.6%[46.1 µM],-3.4%,/,/,/,/,14.6%,12.3%[46.1 µM]
O=C(NCCS(=O)(=O)N1CCC2(CC1)OCCO2)c1ccc(F)cc1,?,0.5%,/,0.7%,/,/,8.9%,-3.1%
Cc1ccc(Cl)cc1NC(=O)C1CCCN(S(=O)(=O)c2c(C)noc2/C=C/N(C)C)C1 (stereo not drawn),-3.7%[46.1 µM],/,7.2%,/,-8.8%,/,-20.4%,-0.1%[46.1 µM]
CCCC1(CCC)C(=O)NC(=Nc2ccccc2)NC1=O,9.0%,5.8%,-1.6%,-16.6%,2.8%,-10.1%,/,-8.4%
Cc1ccc(N/C(N)=N/c2nc3c(c(=O)[nH]2)CCCC3)c(C)c1,?,0.4%,-0.7%,-2.0%,0.7%,2.5%,/,?
S=C1NC2(CCCC2)Nc2ccccc21,10.4%,-13.6%,/,4.3%,/,6.5%,-1.9%,-4.0%
Cc1c(CBr)[n+](=O)c2c(n1[O-])C(Br)CCC2Br (stereo not drawn),?,-0.3%,/,0.3%,/,-2.7%,-11.6%,0.6%
CC(C)C[C@H](NC(=O)N1CCn2c1nc1ccccc12)C(=O)NCc1ccco1,-29.2%[46.1 µM],-6.1%,/,-1.0%,/,2.6%,12.7%,-8.6%[46.1 µM]
CCOC(=O)C1CCCN(Cc2cc(=O)oc3cc(C)c(C)cc23)C1 (stereo not drawn),7.8%[46.1 µM],3.2%,/,-4.4%,/,/,20.7%,6.2%
COc1ccc(OC)c2nc(-c3ccncc3)ccc12,/,-11.5%,/,0.6%,/,-1.5%,16.1%,/
Cc1cccc(NC(=S)NCCCN2CCOCC2)c1,-3.2%,6.0%,10.0%,29.7%,-2.1%,23.7%,-3.1%,13.8%
S=c1[nH]nc(COc2ccccc2)n1Cc1ccccc1,?,-14.5%,-6.8%,23.2%,-6.9%,5.1%,-20.3%,1.4%
O=C(CSc1n[nH]c(-c2ccc(S(=O)(=O)N3CCCCC3)cc2)n1)Nc1nccs1,-17.4%,-2.3%,-5.2%,3.8%,-2.7%,-4.3%,/,-11.2%
Cc1ccc(/C=N/NC(=O)CSc2nc3ccccc3c(=O)n2-c2ccccc2)s1,5.3%,-17.8%,-5.2%,-16.2%,-5.9%,28.6%,-2.2%,1.8%
CC(C)(C)c1ccc(OCc2ccc(C(=O)N/N=C/c3ccc(O)c(O)c3)cc2)cc1,?,0.7%,/,27.8%,/,/,?,?
O=C(C1=C[C@H](c2ccc(C(F)(F)F)cc2)C[C@H](OCCCCO)O1)N1CCN(Cc2ccc3c(c2)OCO3)CC1,/,2.8%,/,-1.0%,/,-13.0%,0.0%,/
c1ccc(N2CCN(c3ccc4nncn4n3)CC2)nc1,/,-12.0%,2.2%,-0.1%,-3.7%,10.7%,-10.3%,/
CCOCC(=O)Nc1cc(OC)c(Cl)cc1OC,6.3%,-11.3%,-5.9%,-4.8%,0.8%,-5.9%,-11.5%,0.1%
CCCC(=O)C1=C(N(C)c2ccccc2)CC(C)(C)CC1=O,-22.6%[46.1 µM],8.4%,/,-5.4%,/,5.7%,-6.9%,3.5%[46.1 µM]
CCN(C(=O)CSc1nnc2nc(C)cc(C)n12)c1ccccc1,-7.4%,-3.9%,/,0.5%,/,/,-12.2%,-0.6%
C/C(=N\NC(=O)CSc1nc(C)cc(C)n1)c1cccs1,6.3%[46.1 µM],2.9%,-2.4%,-14.2%,-1.5%,-17.6%,5.0%,-4.8%
COc1cccc(N2C(=NC(=O)COc3ccccc3)SC3CS(=O)(=O)CC32)c1 (stereo not drawn),/,-2.7%,/,1.3%,/,1.8%,-8.6%,/
COc1ccc(N(CC(=O)Nc2cc(OC)ccc2OC)S(=O)(=O)c2c(C)noc2C)cc1,/,-2.7%,/,-3.0%,/,-11.8%,-29.5%,/
CCOC(=O)c1sc(=NC(=O)c2ccc(OC(C)C)cc2)n(C)c1C,1.2%[46.1 µM],1.2%,/,-2.5%,/,/,-1.7%,14.1%
